# KCNQ2 enhance = enhances the rat KCNQ2 potassium channel; CHO-K1 KCNQ2, FluxOR thallium flux fluorescence; hits give high values; AID 2239; 310,000 tested, 0.54% active; O88943; B-score at 10 µM;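 active = fluorescence ratio B-score at least 3 SD of library B-scores, with initial fluorescence B-score within 3 SD, cut at about 5.3 in these data; same plate scores as AID 2156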;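 also: B-score of peak minus minimum over baseline fluorescence ratio after K+ and Tl+ stimulus; positive B-score means potentiation of KCNQ2 with more thallium influx and brighter signal; only the inactives scoring about 0 or higher are listed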
# Target sequence (O88943 whole entry, looked up): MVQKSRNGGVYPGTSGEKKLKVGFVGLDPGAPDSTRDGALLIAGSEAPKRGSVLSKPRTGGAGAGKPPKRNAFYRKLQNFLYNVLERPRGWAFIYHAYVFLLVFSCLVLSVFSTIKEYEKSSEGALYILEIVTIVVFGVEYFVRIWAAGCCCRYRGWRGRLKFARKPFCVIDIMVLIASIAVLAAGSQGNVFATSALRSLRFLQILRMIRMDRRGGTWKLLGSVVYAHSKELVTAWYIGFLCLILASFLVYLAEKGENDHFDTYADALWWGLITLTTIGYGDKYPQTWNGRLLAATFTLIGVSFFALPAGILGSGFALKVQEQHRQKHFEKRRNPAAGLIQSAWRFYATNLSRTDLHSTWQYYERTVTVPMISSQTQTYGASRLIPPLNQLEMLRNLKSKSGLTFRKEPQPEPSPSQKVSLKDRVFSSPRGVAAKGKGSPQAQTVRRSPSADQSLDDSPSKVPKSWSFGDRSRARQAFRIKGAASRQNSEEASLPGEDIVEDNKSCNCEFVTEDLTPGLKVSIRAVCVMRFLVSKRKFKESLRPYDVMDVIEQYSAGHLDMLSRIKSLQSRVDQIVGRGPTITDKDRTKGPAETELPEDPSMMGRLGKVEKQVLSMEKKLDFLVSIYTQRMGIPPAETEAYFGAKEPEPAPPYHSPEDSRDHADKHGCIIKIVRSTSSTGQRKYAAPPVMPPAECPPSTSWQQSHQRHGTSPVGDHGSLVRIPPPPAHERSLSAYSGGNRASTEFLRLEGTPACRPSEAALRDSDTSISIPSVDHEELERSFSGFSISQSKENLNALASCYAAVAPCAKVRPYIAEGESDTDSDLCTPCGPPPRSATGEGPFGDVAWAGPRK
# KCNQ2 enhance baseline = second read-out of KCNQ2 enhance, no call of its own (marks repeat the call); B-score; compound at 10 µM; measured here: initial fluorescence intensity artifact check;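 brightness before thallium and not channel activity; 0 = typical well and far values either way flag optical interference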
# Numbers without * were called inactive.
KCNQ2 enhance | KCNQ2 enhance baseline | SMILES
0.48 | 0.95 | O=C(NC1CCCCC1)C1CCN(S(=O)(=O)c2cccc3cccnc23)CC1
0.02 | -0.99 | O=C(c1ccc(-n2cncn2)c([N+](=O)[O-])c1)N1CCN(S(=O)(=O)c2ccccc2F)CC1
1.9 | -0.76 | Cc1ccc2nc(NC(=O)c3ccccn3)sc2c1
0.96 | -1.26 | CCn1cc(C(=O)NCCCN2CCCC(C)C2)c(=O)c2cc(S(=O)(=O)N3CCOCC3)ccc21 (stereo not given)
1.67 | -0.97 | CN(CC(=O)Nn1cnnc1)S(=O)(=O)c1cc(Cl)ccc1Cl
0.04 | -0.14 | CCCC(NC(=O)c1ccccc1)c1nc2ccccc2n1Cc1ccc(C(=O)OC)o1 (stereo not given)
0.99 | -2.25 | Cc1cccc(OCc2n[nH]c(=S)n2C2CCCCC2)c1
0.11 | 0.64 | NC(=S)NNC(=O)c1cccc(Br)c1
0.94 | -0.85 | O=c1[nH]c(=O)n([C@H]2C[C@H](O)[C@@H](CO)O2)cc1C(F)(F)F
0.13 | 0.34 | O=C(Nc1cccc2nsnc12)c1cccnc1
0.49 | -0.4 | Cc1csc2nc(O)c(C(=O)NCc3ccc4c(c3)OCO4)c(=O)n12
0.32 | -1.23 | O=C1Nc2ccccc2N(O)N1c1cc(-c2ccccc2Cl)no1
1.53 | -0.34 | CC(=O)N(C)C1=C(O)c2ccccc2C(=O)C1=O
1 | 0.25 | CC(C)(CO)NC(=O)CC1C(=O)NCCN1Cc1ccc(-c2ccccc2)cc1 (stereo not given)
0.04 | -0.62 | Cc1cc(/C=N/NC(N)=O)c(C)n1C1CCCCC1
0.09 | 0.09 | CCOC(=O)N1CCN(C(=O)CCC(=O)c2ccc(OCC)cc2)CC1
2.09 | -0.42 | CC(C)CNc1nc(N)c([N+](=O)[O-])c(NCC2CCCO2)n1 (stereo not given)
1.7 | -0.23 | CC1CN(C(=O)c2cnn3c(C(F)F)cc(-c4ccccc4)nc23)CC(C)O1 (stereo not given)
1.11 | -2.48 | COc1ccccc1NC(=S)N1CCc2cc(OC)c(OC)cc2C1
0.38 | 0.14 | COc1ccc(C(=O)Nc2nc3nccc(-c4ccccc4)n3n2)cc1
1.08 | 0.37 | CCOC(=O)C1CCN(C(=O)CCS(=O)(=O)c2ccc3c(c2)n(C)c(=O)c(=O)n3C)CC1
0.89 | -0.18 | CCCC(=O)Nc1ccc2c(c1)nc(CCN1CCCCC1)n2C
0.6 | -0.92 | CN1CCN(S(=O)(=O)c2cnccc2N2CCN(c3cccc(Cl)c3)CC2)CC1
0.83 | -0.01 | Cc1ccc(N(CC(=O)NC(C)(C)C)C(=O)CS(=O)CC(=O)Nc2ccc3c(c2)OCO3)cc1 (stereo not given)
1.32 | -0.48 | CCOc1cc(-c2noc(CCCC(=O)NC3CCCCC3)n2)ccc1OC
0.53 | 0.62 | O=C(Nc1nccs1)C1CCCN1S(=O)(=O)c1ccc(Cl)cc1 (stereo not given)
1.42 | 0.23 | COc1ccc(-n2nc3c(c2NC(=O)c2ccco2)CS(=O)(=O)C3)cc1
0.87 | -1.03 | O=S(=O)(NCCc1ccccn1)c1ccc(-c2ccccn2)s1
0.52 | -0.95 | Cc1cc(S(=O)(=O)N2CCOCC2)ccc1OCC(=O)N1CCOCC1
1.43 | -3.11 | CCn1c(SCC(=O)c2ccc(O)c(O)c2)nnc1-c1ccccc1OC
0.43 | -0.68 | CC(C)CCn1c(SCC#N)nc2c(sc3ccccc32)c1=O
2.33 | -1.93 | CCS(=O)(=O)N1CCC(C(=O)N2CCN(c3ccccc3)CC2)CC1
0.29 | -1.53 | O=C(CCCc1c[nH]c2ccccc12)N[C@@H](Cc1c[nH]c2ccccc12)C(=O)O
0.11 | -1.14 | COc1cccc2cc(C(=O)c3ccccc3)oc12
0.36 | -0.01 | CCCCC1CC(CSc2ncn[nH]2)OC1=O (stereo not given)
0.27 | 0.67 | CC1CCCCN1CCn1c(=S)[nH]c2cc3c(cc2c1=O)OCO3 (stereo not given)
1.14 | 0.1 | Cc1cc2oc(C(=O)N(Cc3ccccc3)c3ccccn3)cc(=O)c2cc1Cl
0.01 | 0.81 | O=C1c2ccccc2C(=O)N1CC(O)CN1CCOCC1 (stereo not given)
0.47 | 3.14 | Cc1ccccc1-c1ncc(CN2CCN(C3CCCC3)C(CCO)C2)cn1 (stereo not given)
1.21 | 1.47 | CC(C)C(=O)Nc1cccc(C(=O)Nc2ccc(S(=O)(=O)Nc3nccs3)cc2)c1
0.01 | 0.22 | CCOC(=O)N1CCN(C(=O)c2ccc3c(=O)n(Cc4ccccc4)c(=S)[nH]c3c2)CC1
0.1 | -0.59 | COc1ccc(S(=O)(=O)n2nc(C)c(S(=O)(=O)N3CCOCC3)c2C)cc1OC
0.49 | -0.17 | CCc1c(C)nc2c(C#N)c(C)[nH]n2c1=O
0.65 | -0.12 | Cc1cc2nc(-c3cccc(NC(=O)c4ccc(Br)o4)c3C)oc2cc1C
0.6 | 1.22 | C#CCNC(=O)C(C)c1ncc(C(F)(F)F)cc1Cl (stereo not given)
1.36 | -2.4 | CSc1ncccc1C(=O)NC1CCN(Cc2ccccc2)CC1
0.59 | 0.76 | O=C(CSc1ccc(-c2ccc(Br)cc2)nn1)N1CCOCC1
0.29 | -0.81 | CN(C)S(=O)(=O)c1cccc(C(=O)NCC2CCCCC2)c1
1.52 | -0.24 | CN(C)S(=O)(=O)c1ccc(C(=O)NCc2ccco2)cc1
1.63 | -2.89 | CC1(c2ccc(OC(F)F)cc2)NC(=O)N(CC(=O)Nc2ccc(OC(F)F)cc2)C1=O (stereo not given)
1.63 | 1.74 | c1ccc(CSCCc2ccncc2)cc1
0.55 | -0.78 | O=C(NNS(=O)(=O)c1ccc(F)cc1)c1cccc(O)c1
0.45 | 0.22 | Cc1cc(C(=O)N(C)C)sc1-c1ccccc1
0.83 | 0.74 | CCOc1ccc(NC(=O)CN2C(=O)C3CCCN3C2=O)cc1 (stereo not given)
1.49 | 0.76 | Cc1ccc2c(Cl)cc(Cl)c(OCC(=O)Nc3cccc(S(=O)(=O)N(C)C)c3)c2n1
3.31 | 0.31 | O=C(c1ccccc1-n1cccc1)N1N=C(C(F)F)CC1(O)C(F)F (stereo not given)
0.45 | 0.49 | COC(=O)c1ccc(NC(=O)Nc2ccc(F)cc2)cc1
2.09 | -1.41 | CC(C)C[C@H]1COCCS(=O)(=O)N1Cc1cccc(Cl)c1
1.63 | -0.01 | Cc1ccc(S(=O)(=O)N2CCN(C(=O)COC(=O)Cc3cccc(C(F)(F)F)c3)CC2)c(C)c1
0.94 | 1.3 | CCn1ncc(/C=N\NC(=O)c2csc3ccccc23)c1C

# More records follow:
KCNQ2 enhance | KCNQ2 enhance baseline | SMILES
0.71 | -0.75 | O=C(c1ccccc1F)N1CCN(c2cnn(-c3cccc(Cl)c3)c(=O)c2Cl)CC1
2.15 | -0.6 | CC(C)c1nnc(NC(=O)Cc2ccccc2[N+](=O)[O-])s1
0.96 | -0.66 | O=S(=O)(Nc1ccc(Cc2ccncc2)cc1)c1cccs1
1.85 | -0.44 | Cc1ccc(-n2nc3c(N4CCC(C(=O)NCCc5ccccc5C)CC4)nnc(C)c3c2C)cc1
0.05 | 1.04 | Cc1cccc(N2CC(C(=O)Nc3nnc(SCC(=O)Nc4nccs4)s3)CC2=O)c1 (stereo not given)
0.99 | -2.51 | CN(C)C=NC(=O)c1cc(C(=O)c2ccc(Cl)cc2)c[nH]1
0.63 | -0.86 | N#Cc1c(/N=C\c2ccc(O)c([N+](=O)[O-])c2)sc2c1CCCC2
2.86 | 12.5 | CNc1nc(-c2ccccc2)[n+](-c2ccc(C)cc2)s1
0.23 | 0.04 | CS(=O)(=O)NCCNC(=O)c1cc(OCC(F)(F)F)ccc1OCC(F)(F)F
0.2 | -0.74 | Cc1nc(NC(=O)c2ccco2)sc1-c1csc(Nc2ccc(Cl)cc2)n1
1.25 | 1.57 | O=C(CNC(=O)c1ccc(Cl)cc1)c1ccccc1
1.25 | -0.23 | CCN(CC)CCN(C(=O)c1ccc([N+](=O)[O-])cc1)c1nc2c(OC)cccc2s1
1.26 | 2.02 | CCc1nc(NC(=O)Cc2csc(C)n2)sc1C(=O)OC
0.6 | 0.81 | S=C(NCCc1ccccn1)Nc1ccc(Cl)cc1
0.52 | -0.87 | O=C1CCCc2c1nc(-c1ccccc1)n2O
0.02 | 0.27 | C=CCN(CC=C)C(=O)Nc1ccc2nc(C)sc2c1
0.22 | 1.41 | O=c1oc2ccccc2n1CCn1c2ccccc2c2nc3ccccc3nc21
0.94 | 0.1 | CCOP(=O)(OCC)C(O)c1cc(OC)c(OC)c(OC)c1 (stereo not given)
0.48 | 0.26 | Cc1ccc(C(=O)N/C(=C\c2cn(S(=O)(=O)N(C)C)c3ccccc23)C(=O)NCCCN2CCOCC2)cc1
1.17 | -0.08 | CC(C)CCNC(=O)NC(=O)CSc1nnc(-c2ccccc2Br)o1
0.1 | 1 | COc1ccc(-c2nnc3ccc(SCC(N)=O)nn23)cc1OC
0.04 | 0.11 | CCOC(=O)c1cc(C#N)c(SCC(=O)O)[nH]c1=O
1.76 | 0.52 | Cc1cc(Cl)ccc1OCC(=O)N1CCCCC1
0.49 | 0.31 | COCC(C)n1c(C)cc(C(=O)CSc2ncccn2)c1C (stereo not given)
1.99 | -0.93 | CCOc1ccc(-c2nnc3sc(COc4ccccc4)nn23)cc1
1.15 | 0.11 | NC(=O)c1cc(S(=O)(=O)NCCCc2ccco2)cs1
1.4 | 0.3 | Cc1ccc(CN2CCN(C/C(Cl)=C/c3ccccc3)CC2CCO)o1 (stereo not given)
1.67 | -1.52 | Cc1ccc2nsnc2c1NC(=O)COc1ccccc1F
1.38 | -1.4 | Cc1ccc2c(c1)N(C(=O)CCC(=O)NCCN1CCOCC1)CC(C)O2 (stereo not given)
1.27 | 0.06 | C=CCn1c(SCC(N)=O)nc2nc3c(cc2c1=O)COC(C)(C)C3
0.61 | 1.37 | CCOc1ccc(C(=O)Nc2ccc(N3CCCC3)cc2)cc1
1.06 | -0.61 | C1CN=C(NC23CC4CC(CC(C4)C2)C3)C1
0.26 | -0.06 | CCCCn1nc(CC(=O)NCCN(CC)CC)c2ccccc2c1=O
2.65 | -1.21 | Cc1c(C(=O)Nc2ccccc2F)sc2ncn(CC(=O)N3CCOCC3)c(=O)c12
0.43 | 2.26 | COc1ccc(CCNC(=O)c2cccc(NS(=O)(=O)c3ccccc3F)c2)cc1OC
0.01 | 0.42 | CCOC(=O)C(c1ccccc1)C(Nc1cc(C(F)(F)F)cc(C(F)(F)F)c1)c1ccccn1 (stereo not given)
3.22 | -0.13 | Cc1ccccc1C1NC(c2ccccc2C)C(C)C(=O)C1C (stereo not given)
0.12 | 1.2 | Cc1cc(C)cc(N(C(=O)c2csnn2)C(C(=O)NC(C)(C)C)c2cccnc2)c1 (stereo not given)
1.29 | -1.11 | CC(=O)Nc1ccc(S(=O)(=O)N2CCN(Cc3csc(C)n3)CC2)cc1
0.07 | 1.25 | CN(Cc1nc(-c2cnccn2)no1)CC(O)c1ccccc1 (stereo not given)

# Profiles, looked up by structure:
# `CCOc1ccc(-c2nnc3sc(COc4ccccc4)nn23)cc1` in the list: KCNQ2 enhance: 1.99; KCNQ2 enhance baseline: -0.93
# `Cc1cc(Cl)ccc1OCC(=O)N1CCCCC1` in the list: KCNQ2 enhance: 1.76; KCNQ2 enhance baseline: 0.52
# `Cc1ccc2nsnc2c1NC(=O)COc1ccccc1F` in the list: KCNQ2 enhance: 1.67; KCNQ2 enhance baseline: -1.52

# Seven structures from above, sorted by SMILES length, smallest number first.
KCNQ2 enhance | KCNQ2 enhance baseline | SMILES
1.76 | 0.52 | Cc1cc(Cl)ccc1OCC(=O)N1CCCCC1
1.06 | -0.61 | C1CN=C(NC23CC4CC(CC(C4)C2)C3)C1
0.49 | 0.31 | COCC(C)n1c(C)cc(C(=O)CSc2ncccn2)c1C (stereo not given)
0.61 | 1.37 | CCOc1ccc(C(=O)Nc2ccc(N3CCCC3)cc2)cc1
1.99 | -0.93 | CCOc1ccc(-c2nnc3sc(COc4ccccc4)nn23)cc1
0.43 | 2.26 | COc1ccc(CCNC(=O)c2cccc(NS(=O)(=O)c3ccccc3F)c2)cc1OC
0.12 | 1.2 | Cc1cc(C)cc(N(C(=O)c2csnn2)C(C(=O)NC(C)(C)C)c2cccnc2)c1 (stereo not given)

# Other structures follow:
KCNQ2 enhance | KCNQ2 enhance baseline | SMILES
0.02 | 0.01 | Cc1ccc(C2Nc3ccccc3C(=O)N2CCCN2CCOCC2)cc1 (stereo not given)
0.54 | -0.65 | CCOc1ccc(NC(=O)c2cc(F)c(F)cc2Cl)cc1OCC
1.27 | -1.07 | COc1cccc(NC(=O)C2CCN(S(=O)(=O)c3ccc4c(c3)N(C(C)=O)CCO4)CC2)c1
2.13 | -1.05 | CC(=O)NC1=NN(C(C)=O)C(c2ccc(C(C)C)cc2)S1 (stereo not given)
0.43 | 0.7 | COc1ccc(C(=O)NC23CC4CC(CC(C4)C2)C3)cc1
0.37 | 0.17 | CC1=C(C(=O)OCCOC(C)C)C(c2cc3c(cc2Br)OCO3)C2=C(CCCC2=O)N1 (stereo not given)
0.21 | 0.01 | O=C(O)c1cccc(N2C(=O)CSC2c2ccccc2)c1 (stereo not given)
0.72 | -0.58 | O=S(=O)(Nc1nc2ccccc2nc1Nc1ccc2c(c1)OCCO2)c1cccs1
1.44 | 3.35 | COc1ccc(NC(=O)C2CCN(S(=O)(=O)c3ccc4c(c3)NC(=O)CO4)CC2)cc1
0.63 | 1.51 | O=C(NCCc1ccccc1)C1CCN(C2CCN(Cc3ccco3)CC2)CC1
0.22 | 0.44 | CCn1c(/C=C2\C(=O)Nc3ccccc32)nc2ccccc2c1=O
1.23 | 0.15 | CCCCn1c(N)c(N(CC(C)C)C(=O)CCCSc2nncs2)c(=O)[nH]c1=O
0.55 | 1.5 | Cc1cc(Cl)c2oc(C(=O)NCCN3CCCCC3CO)c(C)c2c1 (stereo not given)
1.05 | -1.73 | CCCC(=O)Nc1ccc2c(c1)Cc1ccccc1-2
2.4 | -0.11 | COc1cc2c(cc1NC(=O)C(C)OC(=O)/C=C/c1ccc(OC(F)F)cc1)oc1ccccc12 (stereo not given)

# This is a subset (hit frequency here may not be typical).
